Compound activity (PubChem BioAssay)
Cruzain inh noDet: qHTS Assay for Promiscuous and Specific Inhibitors of Cruzain (without detergent). hit rate 2.3% among 200,000. AID 1476, 2009. Potency, µM, inactives show max response, negative = inhibition, hits mostly inhibitors. purified cruzain, Z-FR-AMC fluorescence, no detergent;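 further: plate controls were enzyme without inhibitor for no effect and buffer without enzyme for full effect; nearly all actives have a fitted effect of over 40% in size; top concentration of the series not given in the record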
Target sequence (P25779 123-467 limits assumed): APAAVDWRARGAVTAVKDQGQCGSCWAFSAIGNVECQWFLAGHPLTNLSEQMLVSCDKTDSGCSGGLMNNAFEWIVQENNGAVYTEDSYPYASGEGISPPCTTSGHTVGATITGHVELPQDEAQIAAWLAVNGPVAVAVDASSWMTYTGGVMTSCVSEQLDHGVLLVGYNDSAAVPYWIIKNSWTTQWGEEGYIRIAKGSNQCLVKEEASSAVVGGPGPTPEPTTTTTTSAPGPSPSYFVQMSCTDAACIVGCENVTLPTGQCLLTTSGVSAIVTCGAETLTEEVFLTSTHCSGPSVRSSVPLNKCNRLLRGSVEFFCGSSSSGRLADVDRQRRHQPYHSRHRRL
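Purified cruzain at 1.5 nM, pre-incubated 15 min with compound at room temperature in 100 mM sodium acetate pH 5.5, 5 mM DTT, 0.00005% Triton X-100. Reaction started with 2 uM Z-FR-AMC; AMC fluorescence increase over 60 s gives rate.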
SARS PLP yeast: qHTS of Yeast-based Assay for SARS-CoV PLP | hit rate 0.19% among 330,000 | AID 485353, 2010 | S. cerevisiae expressing SARS-CoV PLpro, growth rescue; control for the full effect not named in the record | Potency, µM (series often up to 32.9 µM), inactives show at the highest dose activity, positive = growth rescue; active means well fitted rising curve with a large enough effect; inconclusive means small, poorly fitted or top-dose-only effect; inactive means no such curve, though single readings can be large or run the other way; further: 0% is about no effect; nearly all actives have a fitted effect of over 55% in size; growth read by luminescence after 48 h
Lassa entry inh: qHTS for Inhibitors of binding or entry into cells for Lassa Virus. Lassa virus pseudotype entry inhibition, cell reporter; control for the full effect not named in the record. Potency, µM (series often up to 37.9 µM), without a hit: at the highest dose activity change, negative = inhibition, actives largely listed as inhibitors. hit rate 1.2% among 300,000. AID 540256, 2011; active means well fitted inhibition curve with a large enough effect; inconclusive means small, poorly fitted or top-dose-only effect, or effect the other way; inactive means flat fitted curve, though single readings scatter; tested in HEK293 cells; further: on the % scale 0 is the no-effect control and ±100 the full control effect; nearly all actives have a fitted effect of over 50% in size; luciferase read-out
RE007 growth inh: qHTS Assay for Inhibitors of the HIV-1 protein Vpr; Potency, µM (titrated, usually from 92.2 µM), without a hit: at the top dose activity change, negative = less growth; AID 651644, 2012; hit rate 0.21% among 360,000; S. pombe RE007 Vpr strain, BacTiter-Glo ATP luminescence, 24 h; control for the full effect not named in the record; active = well fitted falling curve with a large enough effect; inconclusive = small, poorly fitted or top-dose-only effect; inactive = no such curve, though single readings can be large or run the other way;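 further: on the % scale 0 is the no-effect control and ±100 the full control effect; nearly all actives have a fitted effect of over 50% in size; the assay follows cell death caused by Vpr and the record does not say whether a fall means rescue or toxicity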
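Fission yeast strain RE007, carrying one chromosomally integrated HIV-1 vpr copy, was seeded at OD 0.01 in PMG+AL medium with 23 nL pinned compound. After 24 h at 30 °C and 99% humidity, viability was read by BacTiter-Glo luminescence.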
MARV entry inh: qHTS for inhibitors of binding or entry into cells for Marburg Virus; Marburg virus pseudotyped entry inhibition, cell reporter; control for the full effect not named in the record; about a third of the inactives were read at about 46 µM; Potency, µM (highest dose often 37.8 µM), without a hit: top-dose activity change, negative = inhibition, hits mostly inhibitors; hit rate 1.8% among 300,000; active = well fitted inhibition curve with a large enough effect; inconclusive = small, poorly fitted or top-dose-only effect, or effect the other way; inactive = flat fitted curve, though single readings scatter; tested in HEK293 cells; about a fifth of its hits are not listed in these tables; further: on the % scale 0 is the no-effect control and ±100 the full control effect; luciferase read-out
Cruzain inh Det: qHTS Assay for Promiscuous and Specific Inhibitors of Cruzain (with detergent); Potency, µM, for inactives: max response, negative = inhibition, most hits filed as inhibitors; Cruzipain (Trypanosoma cruzi), P25779; AID 1478, 2009; purified cruzain, Z-FR-AMC fluorescence, 0.01% Triton; hit rate 0.43% among 200,000;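 further: plate controls were neutral wells for no effect and buffer without enzyme for full effect; nearly all actives have a fitted effect of over 40% in size; top concentration of the series not given in the record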
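Z-FR-AMC hydrolysis (2 uM substrate) by cruzain (1.5 nM) monitored kinetically at ex 360/em 450 nm after 15 min room-temperature compound exposure; 0.01% Triton X-100, pH 5.5, 5 mM DTT.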
NS1 function inh: qHTS Assay for Inhibitors of Influenza NS1 Protein Function. Potency, µM (top dose mostly 46.1 µM), inactives show at the highest dose activity, positive = more growth. AID 2326, 2010. hit rate 0.4% among 270,000. S. cerevisiae slowed by influenza A NS1, growth recovery by OD600; active means well fitted rising curve with a large enough effect; inconclusive means small, poorly fitted or top-dose-only effect; inactive means no such curve, though single readings can be large or run the other way; further: nearly all actives have a fitted effect of over 50% in size
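Recovery from NS1-induced slow growth read by OD600 in budding yeast switched to galactose assay medium (pH 6.0, -URA) at 1:100 dilution. Compound 23 nl per well; the matching strain lacking NS1 serves as control.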
StopGo reporter: High Throughput Screening for Foot and Mouth Disease Virus Antivirals; human cells with a luciferase reporter of 2A StopGo recoding; control for the full effect not named in the record; Potency, µM (titrated, usually from 57.9 µM), for inactives: top-dose signal change, negative = less light; hit rate 1.2% among 410,000; active = well fitted falling curve with a large enough effect; inconclusive = small, poorly fitted or top-dose-only effect; inactive = no such curve, though single readings can be large or run the other way; tested in HEK293T cells; further: on the % scale 0 is the no-effect control and ±100 the full control effect; nearly all actives have a fitted effect of over 45% in size; luciferase light after 4 h
Active calls of the source: *; ? = inconclusive; . = no result given; & = joins results of further samples; [ ] = another dose, or the depositor's remark. Unless noted, the call rests on the fitted dose curve; in most records, active means well fitted curve in the direction sought with a large enough effect; inconclusive means small, poorly fitted or top-dose-only effect, or another doubt; inactive means no such curve, though single readings can be large; an effect the other way counts as inactive or inconclusive. Potency means the concentration at half of the fitted maximal effect. Rows are unselected. About 4.7% of those tested had a hit in this group.

SMILES | Cruzain inh noDet | SARS PLP yeast | Lassa entry inh | RE007 growth inh | MARV entry inh | Cruzain inh Det | NS1 function inh | StopGo reporter
CCOC(=O)COc1cccc2c(=O)n(CC(=O)NCCc3ccc(OC)c(OC)c3)ccc12 | ? | -10% | 14% | . | -1% | -2.0% | -27% | .
CC(C)Oc1ccc(S(=O)(=O)N2CCOCC2)cc1NC(=O)c1ccc(N2CCCC2=O)cc1 | . | -1% | -3%[46.1 µM] | -8% | 0%[46.1 µM] | . | -7% | -17%
CN1C(=O)/C(=C/c2ccc(OCc3ccc(F)cc3)cc2)N(C)C1=S | . | -9% | . | 4% | . | . | -13% | -3%
O=C(NCCCN1CCCC1=O)c1cccc(Oc2ccccc2)c1 | . | 0% | . | -12% | . | . | -4% | 4%
COC(=O)c1cccc(NC(=S)Nc2ccccc2Cl)c1 | . | 2% | -8% | -9% | -6% | . | -2% | 44%[activator]
COc1cccc(-c2coc3cc4oc(=O)c(CCC(=O)O)c(C)c4cc23)c1 | . | -3% | -8% | -2% | -21% | . | 9% | -2%
COc1ccc(C(=O)NC(=S)Nc2ccc(CN3CCOCC3)cc2)cc1OC | . | 0% | . | -2% | . | . | 3% | ?
CCc1ccc(NC(=O)c2cnccn2)cc1 | . | -8% | ? | -11% | ? | . | -13% | -12%
CC12CCC(C(=O)Nc3cc(Cl)ccc3Cl)(C(Br)C1=O)C2(C)C (configuration not stated) | 1% | 15% | ? | -3% | ? | -1.3% | 11% | ?
CCOc1ccc(CNC(=O)Cn2c(=O)c3cccn3c3ccccc32)cc1 | 24% | -2% | ? | -7% | 15%&15%[46.1 µM] | -7.7% | 11% | 19%&-11%
COc1cccc(CN2CCN(Cc3ccc4c(NC(C)=O)cccc4n3)CC2CCO)c1 (configuration not stated) | . | 1% | 16% | -8% | 14%[46.1 µM] | . | -1% | -15%
O=C(NCc1ccc(F)cc1)c1ccc2oc(=O)n(Cc3ccccc3)c2c1 | -5% | . | ? | . | . | -2.6% | . | -28%
COCc1n[nH]c(=S)n1-c1ccccc1 | 5% | -2% | -4% | 7% | 4%[46.1 µM] | 0.8% | 21% | 24%
CCN(CC)CCCN1C(=O)c2oc3ccccc3c(=O)c2C1c1cccc(OC)c1OC (configuration not stated) | -7% | -3% | 9% | -9% | 0% | -3.0% | -10% | -8%
COc1ccc([N+](=O)[O-])cc1NC(=O)C(C)OC(=O)C1CCCC1 (configuration not stated) | . | 3% | . | 4% | . | . | 0% | ?
COCCNC(=O)c1c[nH]c2ccc(S(=O)(=O)Nc3ccccc3F)cc2c1=O | . | 0% | . | -8% | . | . | 6% | 0%
COc1ccccc1C(=O)Nc1ccc(S(=O)(=O)Nc2cc(C)nc(C)n2)cc1 | 8% | -4% | 13% | 6% | 26% | 3.3% | 0% | 52%[activator]
Cc1cccc2cc3c(N)c(C(=O)N4CCOCC4)sc3nc12 | -3% | ? | 11µM* | -16% | ? | -2.4% | -9% | 49%[activator]
CCCC(NC(=O)C(C)NC(=O)CO/N=C1\C=C2CCC3C4CCC(C(C)=O)[C@@]4(C)CCC3[C@@]2(C)CC1)C(=O)O (some centres not stated) | . | 1% | . | 9% | . | . | 7% | -1%
O=S(=O)(NC1CCCCC1N1CCC(O)CC1)c1ccc(Cl)cc1 (configuration not stated) | . | -1% | . | -6% | 0% | . | 2% | -14%
Cc1ccc(C=Nc2ccccc2C(N)=O)s1 | 7% | 26% | ? | -7% | ? | -2.7% | -2% | 0%
O=C1CC(N2CCOCC2)C(=O)N1c1ccc(Cl)cc1 (configuration not stated) | . | -6% | . | ? | . | . | -8% | -14%
Cc1cccc(N(C(=O)c2ccc(Cl)cc2)C2CS(=O)(=O)CC2OC(=O)c2ccc(Cl)cc2)c1 (configuration not stated) | ? | 1% | ? | -2% | ? | 0.3% | 20% | .
Cc1ccc(C)c(S(=O)(=O)N2CCCN(C)CC2)c1 | . | 15% | 2%[46.1 µM] | 3% | 8%[46.1 µM] | . | 5% | 10%
O=C(CN1CCCCCC1)NC(c1ccccc1)c1ccccc1 | . | 7% | -23%[46.1 µM] | -2% | ? | . | -4% | -8%

(further entries)
SMILES | Cruzain inh noDet | SARS PLP yeast | Lassa entry inh | RE007 growth inh | MARV entry inh | Cruzain inh Det | NS1 function inh | StopGo reporter
Cc1c(C(=O)NC(C)c2ccccc2)sc2ncnc(N(C)C3CCCCC3)c12 (configuration not stated) | 2% | . | ? | . | . | -3.6% | . | 3%
Cc1ccc2cccnc2c1NC(=S)NC(=O)c1ccccc1 | -5% | 1% | 17% | -13% | -8% | -9.3% | -2% | ?
CCN(CC(=O)Nc1c(F)cccc1F)C(=O)CSc1nnc(-c2ccco2)n1CC | . | -9% | 10% | -3% | 6% | . | 3% | -8%
COc1cc(OC)nc(NC(C)=O)n1 | 3% | 2% | -8% | -12% | 9% | 3.0% | 0% | -11%
Cc1ccc(C)c(NC(=S)N/N=C/C(C)c2ccccc2)c1 (configuration not stated) | . | -2% | . | -7% | -2%[46.1 µM] | . | 3% | 14%
Cc1cccc(N(C)S(=O)(=O)c2ccc3c(c2)C(C)(C)C(=O)N3C)c1 | . | 1% | . | 14% | . | . | 15% | 18%
CC1=C(C)CC(C(=O)NNC(=O)c2ccccc2)C(C(=O)O)C1 (configuration not stated) | -8% | 4% | 19% | 0% | -2%[46.1 µM] | 0.9% | -4% | -6%
CC1=C(C(=O)Nc2cccc(C(F)(F)F)c2)C2(CCN(C(C)C)CC2)OC1=O | -13% | . | ? | . | . | -1.6% | . | -18%
COCCC(=O)N1CCC(Oc2ccc(C(=O)NC(C)CCn3cccn3)cc2)CC1 (configuration not stated) | . | -2% | 3% | -11% | 21% | . | -9% | 10%
O=C(c1ccc(-c2ccc([N+](=O)[O-])cc2)o1)N1CCCCC1 | -5% | -23% | -27% | -16% | 3% | -6.8% | -50% | 42%[activator]
CCOC(=O)C1CCCN(C(=O)/C=C/c2cc(OC)c(OC)c(OC)c2)C1 (configuration not stated) | . | 0% | -17% | 1% | 11%[46.1 µM] | . | . | -5%
Cc1cc(O)ccc1N/C=C1\CCCC1=O | -5% | -2% | -3% | 1% | -6% | -4.6% | 17% | 15%
Cc1ccc(SCc2nc3ccccc3n2CC(=O)Nc2ccccc2)cc1 | 12% | -1% | -1% | -1% | -13% | -4.6% | -3% | -12%
C#Cc1ccc(CN2CCC(N3CCC(C(=O)NCc4ccccn4)CC3)CC2)cc1 | . | 4% | . | -5% | . | . | -3% | -18%
O=C(NNC(=O)c1csc(N2CCOCC2)n1)c1ccc(Cl)nc1 | . | -7% | -8% | -7% | ? | . | . | -23%
CN1C=CC2=C(C#N)C(N)C(C#N)(C#N)C(c3ccccc3)C2C1 (configuration not stated) | -3% | 0% | 8% | -10% | -16% | -7.8% | -2% | -7%
CCOc1ccc(NC(=O)c2ccc(NC(=O)CN3C(=O)C(=O)N(CC(C)C)C3=O)cc2)cc1 | . | 3% | 4% | -3% | 7% | . | . | 2%
O=C(COC(=O)c1cccc(Cl)c1)NC(=O)NCc1ccccc1 | . | -1% | -15% | 1% | 4% | . | . | -7%
CCOC(=O)c1c(NC(=O)CS(=O)(=O)c2cn(CC)c3ccccc23)sc2c1CCCC2 | ? | -7% | -9% | 8% | -12% | -5.9% | 26% | -29%
COc1cccc(C(=O)Nc2nnc(SCC(=O)Nc3ccc(NC(C)=O)cc3)s2)c1 | . | -1% | ? | -2% | ? | . | -14% | -41%
Cc1noc(NS(=O)(=O)c2ccc(NC(=O)COc3ccccc3Br)cc2)c1C | 4% | . | ? | . | . | -7.2% | . | -8%
Cc1cccc(N(C)C(=O)CS(=O)(=O)c2cccc3nsnc23)c1 | -2% | . | -19%[46.1 µM] | . | . | -2.4% | . | 1%
CCOC(=O)Cn1c(=O)n(CC2CCCO2)c2nc(-c3ccc(OCC)cc3)nc(C(N)=O)c21 (configuration not stated) | 3% | . | -19%[46.1 µM] | . | . | -2.7% | . | -26%
O=C(NC(=S)NCc1ccco1)c1ccc(Br)cc1 | . | 5% | -6% | ? | -2% | . | 1% | 60%[activator]
CC(=O)N1CCCc2cc(S(=O)(=O)N3CCC(N(C)C(C)C)CC3)ccc21 | -3% | . | 10%[46.1 µM] | . | . | -0.8% | . | 5%

Further compounds
SMILES | Cruzain inh noDet | SARS PLP yeast | Lassa entry inh | RE007 growth inh | MARV entry inh | Cruzain inh Det | NS1 function inh | StopGo reporter
CC1CCCC(C)N1C(=O)c1cc2ncc(CCCl)cn2n1 (configuration not stated) | -9% | 5% | 6% | ? | -8% | -6.2% | 7% | -10%
CCN1C(=O)[C@H]2[C@H]3[C@H](O)[C@H](O)C/C(=N\OC[C@@H](C)[C@H](OCc4ccccc4)C(C)C)[C@@H]3CC[C@H]2C1=O | ? | 5% | ? | . | 1%[14.2 µM] | -4.5% | -25% | .
Cn1ncc([N+](=O)[O-])c1C(=O)Nc1ccccc1 | . | 1% | . | 7% | . | . | -28% | -4%
Cc1ccc(CNC(=O)c2cc3sc(Cl)cc3n2C)cc1 | 9% | . | . | . | ? | -1.2% | . | 2%
CCOc1ccc(NC(=O)CN(C)S(=O)(=O)c2cnc[nH]2)cc1 | 8% | -1% | ? | 4% | ? | -2.8% | . | 4%&-4%
COC(=O)C1=C(O)CSC1=Nc1ccccc1 | -6% | 2% | 4% | 0% | ? | 6.1% | -5% | 5%
CC(C)Cc1nnc(NC(=O)CCC(=O)NC2CCCCCC2)s1 | . | -16% | 28%[46.1 µM] | -14% | 29%[46.1 µM] | . | 13% | 2%
